# Vaccinia stage = blocks a specific stage of Vaccinia orthopoxvirus infection. Vaccinia-infected cells, mCherry/Venus stage reporter fluorescence; active compounds read low; some inactives read as strong as hits. activity change (mCherry), % (test concentration not listed). actives 0.01% (n = 89,000). AID 1053133;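 active means mCherry past -33% and 40 or more points under the early reporter, replicates agreeing; inconclusive means past -33% without that gap or agreement; tested in A549 cells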;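 further: scaled between vehicle wells and reference inhibitor wells; 23 nL library stock went into each well; one replicate is shown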
# Vaccinia stage Venus = recorded beside Vaccinia stage, whose call it bears; activity change (Venus), %; measured here: Venus reporter, other viral stage;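 negative = less Venus signal; first of two replicates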
# * hit, by the source's call; ? = inconclusive; . = not tested or not shown. Some of the compounds tested; the hit share may differ from the screen's.
# Each structure is followed by: Vaccinia stage	Vaccinia stage Venus
O=C(C[C@H]1CC[C@@H](NS(=O)(=O)c2ccccc2F)[C@H](CO)O1)NCCCN1CCOCC1
 : 7.0	5.1
Cc1ccc(S(=O)(=O)N(C)C[C@@H]2Oc3c(NC(=O)Nc4ccc(C(F)(F)F)cc4)cccc3C(=O)N([C@H](C)CO)C[C@@H]2C)cc1
 : ?	.
COCC#Cc1ccc2c(c1)O[C@@H](CN(C)S(=O)(=O)c1cccc(F)c1)[C@H](C)CN([C@H](C)CO)S2(=O)=O
 : 8.4	3.4
O=C(C[C@H]1CC[C@@H]2[C@H](COC[C@H](O)CN2S(=O)(=O)c2ccccc2F)O1)NCc1ccccc1F
 : 4.5	3.2
C[C@@H](O)C#Cc1ccc2c(c1)O[C@H](CN(C)Cc1ccccc1)[C@@H](C)CN([C@@H](C)CO)S2(=O)=O
 : -19.6	-21.3
CO[C@H]1CN(C)C(=O)c2cc(NC(=O)c3nc4ccccc4s3)ccc2OC[C@H](C)N(Cc2cccnc2)C[C@@H]1C
 : ?	.
O=C(NCC[C@H]1CC[C@H](NC(=O)C2CC2)[C@H](CO)O1)c1cnccn1
 : 20.2	20.2
COc1ccc(NC(=O)N(C)C[C@H]2Oc3ccc(NC(=O)Nc4c(C)noc4C)cc3CC(=O)N([C@@H](C)CO)C[C@H]2C)cc1
 : 0.7	6.2
CO[C@H]1CN(C)C(=O)c2ccc(NC(=O)c3cc(C)on3)cc2OC[C@H](C)N(CC2CC2)C[C@@H]1C
 : -2.1	-4.6
C[C@H](CO)N1C[C@H](C)[C@H](CN(C)C(=O)Nc2ccccc2)OCCCC[C@H](C)Oc2ccc(NC(=O)Nc3ccc(F)cc3)cc2C1=O
 : 4.8	14.0
C[C@H](CO)N1C[C@H](C)[C@@H](CN(C)Cc2ccc(-c3ccccc3)cc2)Oc2ccc(NS(=O)(=O)c3ccccc3)cc2C1=O
 : -22.0	-14.1
COc1ccccc1-c1ccc2n(c1=O)C[C@@H]1[C@@H](CO)[C@H](C(=O)NC3CCC3)N(C(C)=O)[C@H]21
 : 0.3	4.4
O=C(C[C@@H]1C=C[C@@H](NC(=O)c2ccc3c(c2)OCO3)[C@H](CO)O1)NCc1ccc(F)cc1
 : 0.2	18.8
O=C(C[C@@H]1CC[C@@H](NC(=O)C2CC2)[C@@H](CO)O1)NCC1CC1
 : 2.1	-0.5
C[C@@H]1CN([C@H](C)CO)C(=O)Cc2cc(NS(=O)(=O)c3ccccc3)ccc2O[C@H]1CN(C)C(=O)Nc1ccc(F)cc1
 : 13.6	-1.0
C[C@@H]1CN([C@H](C)CO)C(=O)c2cccc(NC(=O)Nc3ccccc3)c2O[C@@H]1CN(C)Cc1ccc2c(c1)OCO2
 : -0.5	0.1
C[C@H](CO)N1C[C@H](C)[C@@H](CN(C)Cc2ccncc2)OCc2cn(nn2)CCCC1=O
 : 2.8	6.3
CN(C)C(=O)[C@@H]1[C@@H](CO)[C@@H]2Cn3c(ccc(-c4ccccc4)c3=O)[C@H]1N2CCc1ccccc1
 : 17.1	8.0
COC(=O)C[C@@H]1CC[C@H]2[C@H](COc3ccc(NC(=O)Nc4ccccc4C)cc3C(=O)N2C)O1
 : 2.1	11.6
C[C@H](CO)N1C[C@H](C)[C@H](CN(C)S(=O)(=O)c2ccccc2)Oc2ccc(NS(=O)(=O)c3ccc(F)cc3)cc2CC1=O
 : -9.4	9.2
Cc1ccc(S(=O)(=O)N(C)C[C@H]2Oc3c(NC(=O)NC(C)C)cccc3C(=O)N([C@H](C)CO)C[C@H]2C)cc1
 : -1.1	7.5
COc1ccccc1S(=O)(=O)N[C@@H]1CC[C@H](CCNC(=O)C2CCCCC2)O[C@@H]1CO
 : 6.2	6.4
Cc1noc(C)c1NC(=O)Nc1ccc2c(c1)C(=O)N([C@@H](C)CO)C[C@@H](C)[C@@H](CN(C)C(=O)NC(C)C)O2
 : 12.3	7.2
O=C(C[C@@H]1CC[C@@H]2[C@H](COC[C@@H](O)CN2Cc2cccc(C(F)(F)F)c2)O1)NCc1ccc(Cl)cc1
 : -32.4	-26.9
CN(C)C(=O)[C@H]1[C@H](CO)[C@H]2Cn3c(ccc(-c4cccc(F)c4)c3=O)[C@H]2N1C(=O)c1cnccn1
 : 7.6	-2.9
CO[C@H]1CN(C)C(=O)c2ccc(NC(=O)c3ccc(F)cc3)cc2OC[C@@H](C)N(C(=O)CC2CC2)C[C@H]1C
 : -6.8	-1.4
CO[C@@H]1CN(C)C(=O)c2cc(NC(=O)c3ccc(Oc4ccccc4)cc3)ccc2OC[C@H](C)NC[C@H]1C
 : ?	.
C[C@@H]1CN([C@@H](C)CO)C(=O)c2cc(NC(=O)Nc3ccc4c(c3)OCO4)ccc2O[C@H]1CN(C)Cc1ccc(C(=O)Nc2ccccc2N)cc1
 : 20.7	29.3
C[C@@H]1CN([C@H](C)CO)C(=O)Cc2cc(NC(=O)Nc3cccc4ccccc34)ccc2O[C@H]1CN(C)S(=O)(=O)c1ccc(F)cc1
 : 5.2	1.2
COc1ccc(CN(C)C[C@@H]2Oc3c(NC(=O)c4ccc(-c5nccs5)cc4)cccc3C(=O)N([C@H](C)CO)C[C@H]2C)cc1
 : ?	.

# Full records, quoted from the list:
# Profile of `C[C@H](CO)N1C[C@H](C)[C@@H](CN(C)Cc2ccncc2)OCc2cn(nn2)CCCC1=O` : Vaccinia stage = 2.8; Vaccinia stage Venus = 6.3
# Profile of `CN(C)C(=O)[C@@H]1[C@@H](CO)[C@@H]2Cn3c(ccc(-c4ccccc4)c3=O)[C@H]1N2CCc1ccccc1` : Vaccinia stage = 17.1; Vaccinia stage Venus = 8.0

# (further entries)
# Each structure is followed by: Vaccinia stage	Vaccinia stage Venus
CN(C)C(=O)C[C@@H]1CC[C@H](NC(=O)C2CCOCC2)[C@@H](CO)O1
 : 22.4	22.1
C[C@@H]1CN([C@@H](C)CO)C(=O)Cc2cc(NC(=O)Nc3ccc(C(F)(F)F)cc3)ccc2O[C@H]1CN(C)CC1CCCCC1
 : -30.6	-32.3
O=S(=O)(N[C@@H]1CC[C@H](CCn2cc(-c3cccc(F)c3)nn2)O[C@@H]1CO)c1ccc(Cl)cc1
 : -33.7	-22.6
Cc1ccc(-c2cnc3c(c2)C(=O)N([C@@H](C)CO)C[C@@H](C)[C@H](CN(C)S(C)(=O)=O)O3)cc1
 : 13.7	-5.1
O=S(=O)(NCC[C@@H]1CC[C@H](NS(=O)(=O)c2cccc(Cl)c2)[C@H](CO)O1)c1cccc(F)c1
 : -18.2	-9.5
CNC[C@@H]1Oc2ncc(-c3cncnc3)cc2C(=O)N([C@@H](C)CO)C[C@H]1C
 : 13.2	4.7
CN1C(=O)c2cc(NC(=O)C3CCCC3)ccc2OC[C@@H]2O[C@@H](CC(=O)NCC(F)(F)F)CC[C@H]21
 : -0.7	-4.3
C[C@H](CO)N1C[C@H](C)[C@H](CN(C)Cc2ccc(Oc3ccccc3)cc2)Oc2c(NC(=O)c3ccc(-c4nccs4)cc3)cccc2C1=O
 : ?	.
O=C(Cc1ccccn1)N1CC(=O)N2[C@H](C1)[C@@H](c1ccc(-c3ccc(F)cc3)cc1)[C@@H]2CO
 : -2.7	-0.8
COc1ccc2c3c([nH]c2c1)[C@@H](CO)N(Cc1nccs1)CC31CCN(C(=O)C2CCCCC2)CC1
 : -12.0	2.4
CCCNC(=O)N(C)C[C@H]1Oc2ncc(-c3ccccc3F)cc2C(=O)N([C@H](C)CO)C[C@@H]1C
 : 1.4	10.5
C[C@H](CO)N1C[C@H](C)[C@@H](CN(C)S(C)(=O)=O)OCCCC[C@H](C)Oc2ccc(NC(=O)NC3CCCCC3)cc2C1=O
 : 19.6	9.9
CNC[C@H]1Oc2cc(C#Cc3ccc(F)cc3)ccc2S(=O)(=O)N([C@@H](C)CO)C[C@H]1C
 : ?	.
Cc1nc(N2[C@@H](C#N)[C@H](c3ccccc3)[C@@H]2CO)sc1C
 : 12.6	-0.8
O=C(C[C@H]1CC[C@H]2[C@@H](COC[C@H](O)CN2C(=O)Nc2ccccc2)O1)NCCCN1CCOCC1
 : 4.9	-3.7
COc1cccc(NC(=O)N[C@@H]2CC[C@H](CC(=O)Nc3ccccc3)O[C@H]2CO)c1
 : -6.6	-4.1
Cc1ccc(S(=O)(=O)N(C)C[C@H]2OCCCC[C@@H](C)Oc3ccc(NS(=O)(=O)c4ccccc4)cc3C(=O)N([C@H](C)CO)C[C@@H]2C)cc1
 : 0.0	-4.3
Cc1cccc(S(=O)(=O)N2C[C@H]3[C@@H](c4ccccc42)[C@@H](CO)N3C(=O)c2ccccc2)c1
 : 17.3	1.2
C[C@H]1CN([C@@H](C)CO)S(=O)(=O)c2ccc(C3=CCCCC3)cc2O[C@H]1CN(C)C(=O)C1CCC1
 : -30.4	-26.4
C[C@H](CO)N1C[C@H](C)[C@@H](CN(C)C(=O)c2cnccn2)Oc2ncc(-c3cccc(C#N)c3)cc2C1=O
 : 11.0	9.0
COc1ccc(NC(=O)Nc2cccc3c2O[C@@H](CN(C)S(C)(=O)=O)[C@@H](C)CN([C@H](C)CO)C3=O)cc1
 : 10.9	11.6
COCc1cn(CC[C@H]2CC[C@H](NC(=O)CCN3CCCCC3)[C@@H](CO)O2)nn1
 : 14.3	10.4
C[C@H]1CN([C@@H](C)CO)C(=O)c2cc(NC(=O)Nc3ccc4c(c3)OCO4)ccc2O[C@H]1CN(C)C
 : 14.1	4.0
Cc1ccccc1-c1ccc2c(c1)O[C@H](CN(C)C(=O)Nc1ccccc1)[C@H](C)CN([C@H](C)CO)S2(=O)=O
 : ?	.
COCC(=O)N1[C@@H]2CN(C(=O)C3CC3)c3ccccc3[C@@H]2[C@@H]1CO
 : 10.3	8.5
O=C(Nc1ccc(Cl)cc1)N1C[C@H]2[C@@H](c3ccccc31)[C@@H](CO)N2C(=O)c1ccccn1
 : 2.0	-4.3
Cc1noc(C)c1NC(=O)N(C)C[C@@H]1Oc2c(cccc2N(C)C)C(=O)N([C@@H](C)CO)C[C@@H]1C
 : 3.3	-5.0
Cn1cnc(S(=O)(=O)N2CCCCN3[C@H](C2)[C@H](c2ccc(-c4ccc(F)cc4)cc2)[C@@H]3CO)c1
 : ?	.
O=C(C[C@H]1CC[C@H]2[C@@H](COC[C@H](O)CN2Cc2cccc(C(F)(F)F)c2)O1)NCc1ccncc1
 : -3.8	-6.8
CC(C)OC(=O)N(C)C[C@H]1OCc2cnnn2CCCC(=O)N([C@H](C)CO)C[C@@H]1C
 : 2.2	0.8
COc1ccc(NC(=O)N[C@@H]2C=C[C@@H](CC(=O)NC3CCC3)O[C@H]2CO)cc1
 : -2.2	0.8
CCNC(=O)C[C@H]1CC[C@H]2[C@H](COc3ccc(NC(=O)c4ccc(C(F)(F)F)cc4)cc3C(=O)N2C)O1
 : 0.1	1.1
C[C@@H]1CN([C@@H](C)CO)C(=O)Cc2cc(NC(=O)Nc3ccc(F)cc3)ccc2O[C@H]1CN(C)Cc1ccc(C(=O)Nc2ccccc2N)cc1
 : 6.2	11.1
COCC#Cc1cnc2c(c1)C(=O)N([C@@H](C)CO)C[C@H](C)[C@@H](CN(C)C(=O)CN1CCOCC1)O2
 : 9.7	9.2
C[C@@H]1CN([C@H](C)CO)C(=O)Cc2cc(NC(=O)Cn3cnnn3)ccc2O[C@@H]1CN(C)S(=O)(=O)c1cn(C)cn1
 : 6.4	5.8
COc1ccc(NC(=O)N(C)C[C@H]2Oc3ccc(NS(=O)(=O)c4ccccc4)cc3CC(=O)N([C@H](C)CO)C[C@H]2C)cc1
 : 5.5	-0.9
C[C@@H]1CN([C@@H](C)CO)C(=O)CCCn2cc(nn2)CO[C@H]1CN(C)S(=O)(=O)c1ccc(Oc2ccccc2)nc1
 : 12.1	2.1
COc1ccc(CN(C)C[C@@H]2OCCCC[C@H](C)Oc3ccc(NS(=O)(=O)c4ccc(Cl)cc4)cc3C(=O)N([C@H](C)CO)C[C@@H]2C)cc1
 : ?	.
CCCNC(=O)[C@@H]1[C@@H](CO)[C@@H]2Cn3c(ccc(-c4ccccc4)c3=O)[C@@H]2N1C(=O)c1ccccc1F
 : -1.5	2.5
C[C@@H]1CN([C@@H](C)CO)C(=O)c2cc(NC(=O)Nc3cccc4ccccc34)ccc2O[C@@H](C)CCCCO[C@@H]1CN(C)Cc1ccncc1
 : 12.9	9.0
C=CC[C@]1(C(=O)NCC(O)CO)N=C(c2ccc(OCCCO)cc2)O[C@H]1c1ccccc1 (stereo partly drawn)
 : 25.1	19.8
CC(C)NC(=O)Nc1ccc2c(c1)CC(=O)N([C@H](C)CO)C[C@@H](C)[C@@H](CN(C)Cc1ccc(C(F)(F)F)cc1)O2
 : 4.4	-3.0
C[C@@H]1CN([C@H](C)CO)C(=O)Cc2cc(NS(=O)(=O)c3cccs3)ccc2O[C@H]1CN(C)Cc1ccc2c(c1)OCO2
 : 4.5	-5.8
COCC(=O)Nc1ccc2c(c1)[C@@H]1C[C@@H](CC(=O)N3CCc4ccccc4C3)O[C@H](CO)[C@@H]1O2
 : 6.8	-0.7
C[C@@H]1CN([C@@H](C)CO)C(=O)c2cccc(NC(=O)c3nc4ccccc4s3)c2O[C@H]1CN(C)Cc1ccc(Cl)c(Cl)c1
 : -25.3	-18.1
C[C@H](CO)N1C[C@H](C)[C@@H](CN(C)Cc2ccc(C(=O)O)cc2)OCCCC[C@H](C)Oc2ccc(NC(=O)C3CCCCC3)cc2C1=O
 : 10.3	5.3
CNC[C@@H]1Oc2ccc(NS(=O)(=O)c3ccccc3)cc2CC(=O)N([C@@H](C)CO)C[C@H]1C
 : 21.1	6.2
O=C(C[C@@H]1CC[C@H](NC(=O)c2ccccc2)[C@H](CO)O1)Nc1ccc(-c2ccccc2)cc1
 : ?	.
C[C@H](CO)N1C[C@H](C)[C@H](CN(C)Cc2ccc(C(F)(F)F)cc2)OCCCC[C@H](C)Oc2ccc(NC(=O)CCC(F)(F)F)cc2C1=O
 : ?	.
